YjeE inh = YjeE (TsaE) inhibition, E. coli | Potency, µM | actives 0.05% (n = 71,000) | purified YjeE, fluorescence polarisation of a bound ADP probe | P0AF67; active = well fitted falling curve; inconclusive = weaker or top-dose-only fall, or a rising curve; inactive = flat or poorly fitted curve;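 note: top concentration of the series not given in the record; excess ADP was the control for the full effect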
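Fluorescence polarization of a BODIPY Texas Red–ADP probe (2 uM) bound to purified YjeE (10 uM) was read after 15 min room-temperature incubation with compounds. Loss of polarization marks inhibitors; ADP serves as titrated control.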
PK Bst = pyruvate kinase (B. stearothermophilus) modulation. actives 1.2% (n = 51,000). partly purified Bacillus stearothermophilus pyruvate kinase, luminescence ATP production; ribose 5-phosphate activator present at AC10. Potency, µM; in the data active means potency below about 11 µM; inconclusive means mostly about 12 µM to 25 µM; inactive means weaker than that;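 the screen sought inhibitors and activators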;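 note: potency is the fitted concentration of half-maximal effect; scaled between full activation by ribose 5 phosphate and full inhibition by luteolin; about four in five hits inhibit and the cells do not say which; series up to 57 µM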
Active calls of the source: *; i = inactive; u = inconclusive; x = no result given.

Each structure is followed by: YjeE inh | PK Bst
CCC(C)(C)n1nnnc1C(c1cc2cc(C)cc(C)c2[nH]c1=O)N1CCCC1 (centres undefined)
→ i | x
Cc1ccc(S(=O)(=O)Cc2cn3cccnc3n2)cc1
→ i | >57
O=C(Nc1ccc2oc(-c3cccnc3)nc2c1)c1cc2ccccc2o1
→ i | x
CC1CCN(CCC(=O)N2CCCc3c2c(=O)oc2ccc(O)cc32)CC1
→ i | >57
COC(=O)C1=C(C)N(c2cc(Cl)cc(Cl)c2)C(=O)C1
→ i | x
O=C(NCCCn1ccnc1)c1csc2ccccc12
→ i | >57
O=C1NC(c2ccc3c(c2)OCO3)Oc2ccccc21 (centres undefined)
→ i | >57
c1ccc(-c2ccc(-n3ccnc3)cc2)cc1
→ i | u
COC(=O)c1c(N)c(C#N)c(C)n1-c1ccccc1
→ i | x
O=S(=O)(NCC(c1cccnc1)N1CCN(c2ccccc2)CC1)c1cc(F)ccc1F (centres undefined)
→ i | >57
C[C@@H]1C=C[C@](Cc2ccccc2)(C(=O)NCC2CC2)N1C(=O)c1ccccc1
→ i | x
CCOC(=O)C1=C(C)Nc2ncnn2C1/C=C/c1ccccc1 (centres undefined)
→ i | >57
CC1CCCN(C(=O)CN2CCN(C(=O)c3ccco3)CC2)C1 (centres undefined)
→ i | >57
CCOC(=O)c1ccc(NC(=O)CC2SC(=NC)N(C)C2=O)cc1 (centres undefined)
→ i | >57
CCOC(=O)C1CCN(c2c(NCc3ccc(C(=O)NCCOC)cc3)c(=O)c2=O)CC1
→ i | >57
CC(=O)Nc1cc(OC(C)=O)c2nonc2c1OC(C)=O
→ i | >57
CCC(=O)N1c2ccccc2NC2=C(C(=O)CC(c3ccco3)C2)C1c1ccco1 (centres undefined)
→ i | x
CC(CCc1ccccc1)NC(=O)c1nnc(Cc2ccc(F)cc2)o1 (centres undefined)
→ i | x
CC(C)COc1ccc(/C(O)=C2/C(=O)C(=O)N(CCN(C)C)C2c2ccncc2)cc1 (centres undefined)
→ i | >57
CC(C)(C)NC(=O)CSc1nsc(SCC(=O)NC(C)(C)C)c1C#N
→ x | >26
C=CCSc1nsc(N)n1
→ i | >57
CC1(C)Cc2c(c(N3CCOCC3)nc3sc(C(=O)N4CCCCC4)c(N)c23)CO1
→ i | x
CNc1nc(-c2ccc(Cl)cc2)cs1
→ i | 8.1*
Cc1ccccc1CS(=O)(=O)Cc1ccc(C(=O)NCc2cccnc2)o1
→ i | >57
COC(=O)c1[nH]c2c(c1C)C(=O)CC(c1cc(OC)ccc1OC)C2 (centres undefined)
→ i | x
COc1ccc(-c2cc(C(F)(F)F)nc(SCC(=O)NCc3ccco3)n2)cc1OC
→ i | >57
Cc1ccc(C(=O)NCc2ccc3c(c2)OCO3)cc1S(=O)(=O)N1CCOCC1
→ i | >57
Clc1ccc(OCCCc2nc(-c3cccnc3)no2)c(Cl)c1
→ i | >57
CC(=O)OC(C(=O)n1nc(C)cc1C)c1ccccc1 (centres undefined)
→ i | >57
CC(=O)CCc1ccc(OC(=O)c2cccnc2)cc1
→ i | x
c1ccc(-c2cnnc(N3CCCCC3)n2)cc1
→ i | i
Cc1c(C(=O)OC2CCCCC2)[nH]c2c1C(=O)CC(C)(C)C2
→ i | >57
CSc1nc2ccc(S(=O)(=O)NC3CCCCC3)cc2s1
→ i | x
CCOC(=O)c1cc2sc(C)cc2n1CC(=O)N1CCc2ccccc21
→ i | >57
Cc1cc(C(=O)N2CCN(C(=O)C3CCCO3)CC2)no1 (centres undefined)
→ i | >57
COc1ccc2c(c1)CC(C1(O)C(=O)Nc3ccccc31)C2=O (centres undefined)
→ i | >57
COc1ccc(Cl)c(Cn2c(NCc3ccco3)nc3c2c(=O)n(C)c(=O)n3C)c1
→ i | >57
COc1ccc(NC(=O)N2CC3(CCN(C(=O)c4cccn4C)CC3)C2)cc1
→ i | x
COc1ccc(-c2ncncc2-c2csc(C)n2)c(O)c1
→ x | >26
CCOC(=O)c1[nH]c(C)c(CN(CCc2ccccc2)S(C)(=O)=O)c1C
→ i | x
CCOC(=O)C(CCCOc1cccc(OC)c1)C(=O)OCC
→ i | x
Cn1c(SCC(=O)NCc2ccc3c(c2)OCO3)nc2scc(-c3cccs3)c2c1=O
→ i | >57
CCOC(=O)C1CCN(S(=O)(=O)Cc2ccccc2)CC1
→ i | x
CC1(C)CC(=O)C(C=NCc2cccnc2)=C(O)C1
→ i | x
Cc1noc(C)c1-c1nccc(NCc2cccnc2)n1
→ i | x
COC(=O)c1cccc(S(=O)(=O)N2CCC(C)CC2)c1
→ i | >57
Cn1c(SCC(=O)NCC2CCCO2)nnc1-c1ccc(S(=O)(=O)N2CCCC2)cc1 (centres undefined)
→ i | >57
Cc1cccc(C(=O)O)c1
→ i | x
O=C(c1ccc(S(=O)(=O)N2CCOCC2)cc1)N1CCc2ccccc2C1
→ i | >57
O=C(O)CCCC(=O)NCc1ccccn1
→ i | >57
Cc1ccccc1OCC(=O)OC(C)CN1CCN(C)CC1 (centres undefined)
→ i | >57
CC[C@H]1C2=C3C(CC[C@H]4C(OCc5ccc(F)cc5C(F)(F)F)OC[C@](C)([C@@H]34)N(C(=O)OC(C)(C)C)C2)C(COC)C1COC (some centres undefined)
→ i | x
COc1ccc(CNc2ccnc(-c3ccccc3OC)n2)c(OC)c1
→ i | x
COC(=O)c1ccc(S(=O)(=O)N2C3CCC2CC(NC(=O)NC2CCCCC2)C3)cc1 (centres undefined)
→ i | >57
c1ccc(Cn2nnnc2C(c2cccs2)N2CCc3ccccc3C2)cc1 (centres undefined)
→ i | >57
Clc1ccc2nc(N3CCCCC3)sc2c1
→ i | i
COC(=O)c1ccc(C(NC(=O)OCc2ccccc2)/C(F)=C/[C@@H](C)C(=O)NCCc2c[nH]c3ccc(OC)cc23)cc1 (some centres undefined)
→ i | x
N#Cc1ccccc1NC(=O)CSc1nnc(-c2ccccc2)n1-c1ccccc1
→ i | >57
O=C(c1ccccc1)N1CCN(C(=O)c2ccccc2Br)CC1
→ i | >57
CCCc1cc(NCCN2CCOCC2)n2c(nc3ccccc32)c1C#N
→ x | >26

Next part.
Each structure is followed by: YjeE inh | PK Bst
O=C(Nc1ccc(CN2CCOCC2)cc1)c1cccc(F)c1
→ i | >11
CC(=O)Nc1c(C(=O)N2CCN(c3ncccn3)CC2)cnn1-c1ccccc1Cl
→ i | >57
CC1CN(C(=O)CSc2nnc(-c3ccncc3)n2-c2ccccc2)CC(C)O1 (centres undefined)
→ i | >57
CC(=O)N1CCc2cc(S(=O)(=O)NC3CCCc4ccccc43)ccc21 (centres undefined)
→ i | i
COc1cc2c(cc1OC)C(C(=O)NCCN1CCOCC1)C1c3ccccc3CCN1C2=O (centres undefined)
→ i | >57
COc1ccc(NS(=O)(=O)c2cc(OC)ccc2NC(=O)c2cc(C)oc2C)cc1
→ i | >57
Cc1cc(NC(=O)CCC(=O)N(CCC(C)C)C(C(=O)NC2CCCC2)c2cccnc2)no1 (centres undefined)
→ i | >57
CCOC(=O)N1CCN(C(=O)Cn2c(=O)sc3ccccc32)CC1
→ i | >57
COCCOC(=O)c1c(C)oc2ccc(NS(=O)(=O)c3ccc(C(=O)O)cc3)cc12
→ i | >57
CCC1(CC)C(=O)NC(=O)NC1=NCCc1ccc(O)cc1
→ i | >57
COc1ccc2[nH]c(O)c(NC(C)=O)c2c1
→ i | >57
CCn1cc(Br)c(C(=O)Nc2cccc(Cl)c2)n1
→ i | >57
Cc1ccc(-c2nnn(CC(=O)N3CCN(c4ccccc4)CC3)n2)o1
→ i | >57
O=C(CSc1nnnn1-c1ccccc1)NC(=O)Nc1ccc2c(c1)OCCO2
→ i | x
CCOC(=O)/C(C#N)=C1/SC(CCO)C(=O)N1c1ccccc1 (centres undefined)
→ x | i

One compound at a time (already shown). Screens in order: YjeE inh, PK Bst
COc1ccc(NS(=O)(=O)c2cc(OC)ccc2NC(=O)c2cc(C)oc2C)cc1 reads i, >57
CCn1cc(Br)c(C(=O)Nc2cccc(Cl)c2)n1 reads i, >57
Cc1cc(NC(=O)CCC(=O)N(CCC(C)C)C(C(=O)NC2CCCC2)c2cccnc2)no1 (centres undefined) reads i, >57
CCOC(=O)N1CCN(C(=O)Cn2c(=O)sc3ccccc32)CC1 reads i, >57
CC(=O)N1CCc2cc(S(=O)(=O)NC3CCCc4ccccc43)ccc21 (centres undefined) reads i, i

Continuation.
Each structure is followed by: YjeE inh | PK Bst
COc1cc(NC(=O)C2CCCCN2)ccc1OCC(C)C (centres undefined)
→ i | >57
CC1(C)Cc2c(sc3c2c(=N)n(Cc2ccco2)c(=O)n3Cc2ccc(Cl)cc2)CO1
→ i | >57
O=C(Nc1ccc(O)cc1)c1ccc(C(=O)c2ccccc2)o1
→ i | x
COC(=O)Cn1c(C(=O)N(C)C)cc2c1C[C@H]1CN(C(=O)c3ccccc3)[C@@](Cc3ccc(F)cc3)(C(=O)OC)[C@@H]21
→ i | x
CCN(CC)S(=O)(=O)c1cccc(-c2nnc(SCC(N)=O)n2CCc2ccccc2)c1
→ i | >57
Cc1ccc(S(=O)(=O)CC(=O)N2CCCC2)cc1
→ i | >57
O=C(Nc1ccccc1N1CCOCC1)c1ccc(Br)o1
→ i | >57
O=C(CSc1nnc(CNc2ccc(Cl)cc2)o1)Nc1nc2ccccc2s1
→ i | >57
COc1ccc(CCNC(=O)C2CCN(S(=O)(=O)N3CCOCC3)CC2)cc1OC
→ i | >57
CCCCC(C(=O)O)C(C)CC(=O)Nc1cccc(C(=O)O)c1 (centres undefined)
→ x | >26
Cc1cccn2c(=O)c3cc(C#N)c(=O)n(Cc4cccnc4)c3nc12
→ i | >57
CC(C)(C)NS(=O)(=O)c1ccc(NS(=O)(=O)c2ccc(F)cc2)cc1
→ i | x
COc1cccc(CN2C(=O)CCC2(C)C(=O)NC2CCCCCC2)c1 (centres undefined)
→ i | >57
N[C@@H](C(=O)O)[C@H](O)C(=O)O
→ i | x
COc1nnc(-c2ccc(C)c(S(=O)(=O)NCCO)c2)c2ccccc12
→ i | x

Continued (3 carried over from the part before).
Each structure is followed by: YjeE inh | PK Bst
COc1cccc(CN2C(=O)CCC2(C)C(=O)NC2CCCCCC2)c1 (centres undefined)
→ i | >57
N[C@@H](C(=O)O)[C@H](O)C(=O)O
→ i | x
COc1nnc(-c2ccc(C)c(S(=O)(=O)NCCO)c2)c2ccccc12
→ i | x
CCNc1ncc2nc(-c3ccc(Cl)cc3)c(=O)n(C3CC3)c2n1
→ i | x
CC12CN3CC(C)(CN(C1)C3c1ccc(Cl)cc1Cl)C2O (centres undefined)
→ x | >11
COC(=O)c1ccccc1NC(=O)CSc1ccccc1
→ i | x
Nn1c(SCC(=O)Nc2cccc(F)c2)nnc1C1CCCCC1
→ i | >57
CCOc1ccc(NC(=O)CN(c2cc(C)cc(C)c2)S(=O)(=O)c2c(C)noc2C)cc1
→ i | x
COc1ccc(C(CC(=O)O)NC(=O)COc2ccccc2)cc1 (centres undefined)
→ i | >57
O=C(NCc1ccc(N2CCCC2=O)cc1)c1cn(Cc2ccccc2)nn1
→ i | >57
COc1c(-c2ccccc2)oc2c(ccc3occc32)c1=O
→ i | x
CC(=O)N(c1ccc(Br)cc1)C1C=CS(=O)(=O)C1 (centres undefined)
→ i | x
O=c1cc(O)n(-c2ccccc2F)c(=S)[nH]1
→ i | >57
Clc1ccc(CSC2=NCCN2)cc1Cl
→ i | x
O=S(=O)(NCc1ccccn1)c1ccc(Br)s1
→ i | >57
CC1(C)NC(=O)N(CC(O)COc2ccc(-c3ccc(C#N)cc3)cc2)C1=O (centres undefined)
→ i | >57
Cc1ccc(C2N(c3ccc(Cl)c(Cl)c3)C(=O)C3CCCN32)o1 (centres undefined)
→ i | >57
CCCCCCn1c(NCC)nc2c1c(=O)[nH]c(=O)n2C
→ i | >57
O=C(NCCc1ccccc1)c1cnc2sccn2c1=O
→ i | x
CCOCCn1c(SC)nc2c1c(=O)[nH]c(=O)n2C
→ x | >26
Cc1cc(Cl)c(S(=O)(=O)N2CCSCC2)cc1OCC(N)=O
→ i | >57
COCCCNC(=O)c1cc2c(=O)n(C)c3ccccc3c2n1C
→ i | x
Cc1ccc(-n2nc3c(c2NC(=O)c2c(-c4ccccc4Cl)noc2C)CS(=O)(=O)C3)c(C)c1
→ i | >57
CCCC(=O)Nc1ccc(NC(=O)CCc2ccccc2)cn1
→ i | >57
Nc1ccc(C(=O)OCCCc2nc3ccccc3[nH]2)cc1
→ i | >57
COc1ccc(C2CC(=O)NC3=C2C(=O)CCC3)cc1Cl (centres undefined)
→ i | >57
CCOC(=O)N1CCN(c2ccc(Cl)c(Cl)c2)CC1
→ i | >57
C=CCSC1=N/C(=C\C=C\c2ccco2)C(=O)S1
→ i | x
COc1cccc(C2NC(CCSC)(C(=O)O)C3C(=O)N(C(C)C)C(=O)C23)c1O (centres undefined)
→ i | x
O=c1c2c(-c3ccccc3)csc2nc2n1CCC2
→ i | u
CCCCn1c(CN2CCN(C(=O)OCC)CC2)nc2c1c(=O)n(C)c(=O)n2C
→ i | >57
CCOc1ccc(Br)cc1/C=N/O
→ i | x
Cc1cnc(C(=O)OCC(=O)NC(=O)NC(C)C)cn1
→ i | >57
O=C(c1cccc(F)c1)N1CCN(C(=O)C2CC2)CC1
→ i | >57
COc1ccc(Cl)cc1-c1nc(-c2ccc(Br)o2)no1
→ i | x
CC1=C(C)SC(=C(C#N)c2nnc(N3CCOCC3)n2-c2ccccc2)S1
→ i | >57
CCN1CCN(CCCNC(=O)Cn2cc3c(n2)CCCC3)CC1
→ i | x
O=C(Nc1nc2c(s1)C(=O)CCC2)c1ccccc1
→ i | x

A portion of the library; count on the stated rates, not on these rows.
